INS promoter inh: inhibitors of insulin promoter-driven GFP, primary screen, imaging, TRM-6 cells (human fetal islet line), eGFP reporter, cell count | reporter expression induced with tamoxifen | inhibition, % at 2 µM | actives 0.9% (n = 130,000) | AID 1273, 2008;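 active means inhibition above the mean plus 3 SD, with well images judged a real hit on visual review, cut at about 60% in these data, passing the limit was not always enough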
PKD1 kinase inh: inhibitors of human PKD1 kinase, biochemical, fluorescence polarization; Serine/threonine-protein kinase D1 (Homo sapiens), Q15139; PKD1 kinase fluorescence polarization assay; inhibition, %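 (about 10 µM by stock and volumes)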; actives 0.056% (n = 200,000);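 active means inhibition of 50% or more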;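 further: controls were vehicle for no effect and a reference inhibitor for full effect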
Target sequence (Q15139 whole entry, looked up): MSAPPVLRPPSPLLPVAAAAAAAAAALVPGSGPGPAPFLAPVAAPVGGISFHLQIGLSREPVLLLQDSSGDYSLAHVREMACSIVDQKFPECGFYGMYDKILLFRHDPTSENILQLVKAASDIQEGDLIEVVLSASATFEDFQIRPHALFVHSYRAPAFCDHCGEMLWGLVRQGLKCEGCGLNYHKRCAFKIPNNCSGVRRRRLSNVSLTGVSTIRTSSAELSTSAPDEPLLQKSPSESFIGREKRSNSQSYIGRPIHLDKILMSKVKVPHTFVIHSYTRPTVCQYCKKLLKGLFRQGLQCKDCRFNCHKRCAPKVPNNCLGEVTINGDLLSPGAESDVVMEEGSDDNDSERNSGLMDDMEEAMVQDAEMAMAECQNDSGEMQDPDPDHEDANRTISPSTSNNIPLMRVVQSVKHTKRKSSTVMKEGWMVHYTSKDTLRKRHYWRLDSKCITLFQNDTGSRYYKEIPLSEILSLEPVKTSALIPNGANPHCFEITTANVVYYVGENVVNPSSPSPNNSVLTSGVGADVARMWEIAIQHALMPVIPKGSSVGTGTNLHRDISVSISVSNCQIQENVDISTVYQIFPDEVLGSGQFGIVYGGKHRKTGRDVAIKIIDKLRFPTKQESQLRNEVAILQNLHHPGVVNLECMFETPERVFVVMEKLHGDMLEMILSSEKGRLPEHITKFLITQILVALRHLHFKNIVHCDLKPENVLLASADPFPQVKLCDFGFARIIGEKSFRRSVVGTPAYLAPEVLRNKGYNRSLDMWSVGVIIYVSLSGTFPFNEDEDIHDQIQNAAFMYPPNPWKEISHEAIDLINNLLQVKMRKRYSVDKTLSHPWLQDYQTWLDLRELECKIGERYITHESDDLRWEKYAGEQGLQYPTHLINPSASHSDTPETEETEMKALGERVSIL
HSV augment: enhancers of HSV replication in host cells, fold increase, host cell viability; HSV replication augmentation in cells; maximum fold increase; actives 0.005% (n = 220,000); AID 1956, 2009;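 active means peak rise of 1.5-fold or more in the series; tested in PC3 cells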;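 further: first round at 10 µM; read as green reporter fluorescence; hits show the peak of a series up to 25 µM; 1 = signal of infected wells without compound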
GALR2 agonist: GALR2 receptor agonists, primary screen, cell-based; AID 803, 2007; GALR2-expressing cells, agonist activation read-out; Galanin receptor type 2 (Homo sapiens), O43603; activation, %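 (tested at 5 µM)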; actives 0.48% (n = 140,000);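 active means above mean plus 3 SD of all compounds, about 5% in these data, not always enough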;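 further: 0% = vehicle buffer wells and 100% = reference agonist at full effect; tested in CHO reporter cells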
RGS16-Gao: modulators of RGS16 binding to Galphao, primary screen, biochemical, human proteins, multiplexed bead flow cytometry; Regulator of G-protein signaling 16 (Homo sapiens) + Guanine nucleotide-binding protein …; bead-based flow cytometry RGS16-Galphao binding, fluorescence; actives lie on both sides; binding response (% of control), % at 10 µM; actives 0.38% (n = 220,000); AID 1441, 2008;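 active means below 25% or above 175%, edge rows of some plates excepted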;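 further: Galphao activated by GDP with aluminum fluoride before binding; 100% = wells without compound and 0% = beads without RGS; some results beyond the cut were filed as inactive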
INS promoter inh cell count: recorded beside INS promoter inh, whose call it bears; normalized cell count, %; measured here: cell count, toxicity; reference of the scale not given here;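 cells exposed to compound for 48 h; stained nuclei by imaging scaled within each plate; lower means fewer cells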
HSV augment primary fold: second read-out of HSV augment, no call of its own (marks repeat the call); fold increase; compound at 10 µM; measured here: primary screen fold increase 10 uM; tested in PC3 cells;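 GFP signal in the first replicate; 1 = infected wells without compound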
* marks the source's active call; other numbers are inactive results; i = inactive; nt = not tested or not shown.

SMILES | INS promoter inh | INS promoter inh cell count | PKD1 kinase inh | HSV augment | HSV augment primary fold | GALR2 agonist | RGS16-Gao
CC(C)c1ccc2c(c1)C1(NN=C(c3ccccc3)S1)C(=O)N2 (stereo unspecified) | 31 | 141 | 2 | i | 0.95 | 0.4 | 88
CN(C)S(=O)(=O)c1cc(NC(=O)CNCCN2CCOCC2)ccc1Cl | nt | nt | nt | i | 1 | nt | 110
CC(C)COc1ccc(CN=C(N)N=C(N)N)cc1Cl | nt | nt | 1 | i | 0.78 | -0.8 | 100
Cn1cc(C(=O)NCCN2CCN(c3cccc(Cl)c3)CC2)c2c3ccccc3n(C)c2c1=O | nt | nt | 0 | nt | nt | -1.0 | 103
NS(=O)(=O)c1ccc(CCNC(=O)CSc2ccc(Cl)cc2Cl)cc1 | nt | nt | nt | i | 0.86 | nt | 96
CCOC(=O)c1ccc(NC(=O)NC(C)C2CCCO2)cc1 (stereo unspecified) | -7 | 30 | -6 | i | 0.85 | -1.0 | 103
Cn1c(=O)n(C)c2cc([N+](=O)[O-])c(N3CCN(C(=O)c4ccc(Cl)cc4)CC3)cc21 | nt | nt | 16 | i | 1 | -0.1 | 101
CC(C)CCNC(=O)C(=O)Nc1ccccc1 | nt | nt | 1 | i | 0.89 | nt | 100
COc1ccc(S(=O)(=O)N2CCCN(CC(=O)C(C)(C)C)CC2)cc1 | -30 | 97 | -16 | nt | nt | -1.6 | 118
O=S(=O)(c1ccccc1)N1CCN(S(=O)(=O)N2CCCCC2)CC1 | -3 | 87 | -2 | i | 0.69 | -1.3 | 85
COc1cc(C=O)ccc1OC(=O)c1ccncc1 | 24 | 115 | -7 | i | 1.1 | nt | 108
CCCCC(=O)NNC(=S)NC(=O)CCC | 38 | 93 | -5 | nt | nt | -2.5 | 79
CC(=O)c1ccccc1OC(=O)c1c(F)cccc1F | nt | nt | nt | i | 1 | nt | 94
O=C(O)c1ccccc1C(=O)NNc1ccc(Cl)cc1 | 28 | 134 | -13 | i | 0.94 | -3.2 | 109
Cc1nc2ccc(C(=O)N/N=C/c3cc([N+](=O)[O-])ccc3O)cc2[nH]1 | nt | nt | -7 | i | 0.98 | nt | 67
CC1CCN(C(=O)c2ccc(COc3ccccc3Cl)o2)CC1 | nt | nt | -1 | i | 0.88 | -1.7 | 96
Cc1ccc(N2C(=O)C3C(c4ccccc4)N4CCCN4C3(C)C2=O)cc1 (stereo unspecified) | 0 | 144 | 7 | i | 0.94 | 0.0 | 103
Cc1cc(Nc2ccc(Cl)cc2)nc(NCc2ccccc2)n1 | 0 | 138 | 6 | i | 0.51 | 2.8 | 100
COC(=O)c1cc(NC(=O)CN(c2ccc3c(c2)OCO3)S(C)(=O)=O)ccc1Cl | -47 | 170 | -4 | i | 0.9 | 0.3 | 95
O=C(CNS(=O)(=O)c1ccccc1)N/N=C\c1ccc(Cl)cc1 | nt | nt | -6 | i | 0.93 | -1.4 | 81
COc1ccc(S(=O)(=O)N2CCN(C3CCN(Cc4ccccc4)CC3)CC2)cc1 | -12 | 123 | 4 | i | 0.98 | -1.8 | 261
O=C(/C=C/c1ccc2c(c1)OCO2)NCc1ccncc1 | nt | nt | nt | i | 0.99 | nt | 92
COc1ccc(S(=O)(=O)N2CCCCCC2)cc1C(=O)OCc1c(C)noc1C | nt | nt | 3 | i | 0.92 | -0.3 | 102
COC(=O)c1ccc(Nc2cc(C)nc(-c3ccccc3O)n2)cc1 | -9 | 114 | -6 | i | 0.95 | 0.5 | 122
CCCC(C(=O)NC(C)(C)C)N(C(=O)c1snc(C(N)=O)c1N)c1ccc2c(c1)OCCO2 (stereo unspecified) | 0 | 100 | -9 | i | 1.1 | nt | 108
O=S(=O)(NCc1c(Cl)cccc1Oc1ccccc1)c1ccccc1 | nt | nt | nt | i | 1.1 | nt | 98
O=C(O)CC(Cc1ccc(Cl)cc1)C(=O)NCc1ccccc1 (stereo unspecified) | 21 | 97 | 0 | i | 0.94 | -0.3 | 104
COc1cc(C2CC(=O)N(CC(=O)NCC3CCCO3)c3ccccc3S2)cc(OC)c1OC (stereo unspecified) | nt | nt | 0 | i | 1 | nt | 101
CCOC(=O)C1CCN(C(=O)CSc2cc(=O)n(CC)c3ccccc23)CC1 | -26 | 138 | -6 | i | 1.3 | -2.2 | 96
CC1CCCC(NC(=O)C2CCN(S(=O)(=O)N3CCC4(CC3)OCCO4)CC2)C1C (stereo unspecified) | -25 | 126 | -11 | nt | nt | -3.5 | 103
CCc1sc(C(=O)NC)cc1Br | 31 | 81 | 3 | i | 0.97 | -1.1 | 98
OCc1ccccc1OCCOc1ccc(Cl)c2cccnc12 | -24 | 86 | -5 | i | 0.87 | -2.2 | 87
CC(C)(C)C(=O)Nc1ccccc1C(=O)NCCCn1ccnc1 | nt | nt | -3 | i | 1 | nt | 102
CN(C)S(=O)(=O)c1cccc(NC(=O)c2cc(=O)[nH]c3ccccc23)c1 | -61 | 27 | -9 | i | 0.94 | nt | 97
COc1cccc2sc(/N=C/N(C)C)nc12 | nt | nt | nt | i | 1 | nt | 99
O=C(COC(=O)c1ccc(-c2nnc(-c3ccccc3)o2)cc1)c1ccccc1 | nt | nt | -8 | i | 0.88 | -0.7 | 105
Cc1ccc2[nH]c(=O)c(C(c3nnnn3Cc3ccccc3)N3CCc4ccccc43)cc2c1 (stereo unspecified) | -121 | 88 | -5 | i | 1 | -1.9 | 106
O=c1c2ccccc2nc2ccc(NCc3cccs3)nn12 | 7 | 106 | 11 | i | 0.85 | nt | 101
Cc1nn(C)c(Cl)c1CN1CCCC(CCC(=O)NCc2ccccc2F)C1 (stereo unspecified) | nt | nt | 3 | i | 0.97 | nt | 102
O=C(NN1C(=O)c2ccccc2NC1c1ccc([N+](=O)[O-])o1)c1ccc(Br)cc1 (stereo unspecified) | -36 | 136 | -3 | i | 1 | nt | 95
CCCC1OC23CCCCC2C(C#N)(C#N)C1(C#N)C(=N)O3 (stereo unspecified) | -29 | 66 | -5 | i | 1.4 | 1.2 | 108
Cc1cc(C)c(NC(=O)COC(=O)/C=C/c2cccc(C(F)(F)F)c2)c(C)c1 | -43 | 90 | -6 | i | 0.86 | -2.2 | 115
O=C(NNC(=O)c1cc(-c2ccccc2)nc2ccccc12)Nc1cccc(Cl)c1 | -7 | 138 | 5 | i | 0.91 | -1.6 | 100
CN(CCNC(=O)c1cc2c(=O)n(C)c3ccccc3c2n1C)Cc1ccccc1 | nt | nt | 6 | i | 1.1 | -4.1 | 120
O=C(c1cccc([N+](=O)[O-])c1)c1ccc2c(c1)C(=O)N(c1c[nH]c(=O)[nH]c1=O)C2=O | -19 | 97 | -2 | i | 0.99 | nt | 105

3 records picked at random from those above, as already listed:
SMILES | INS promoter inh | INS promoter inh cell count | PKD1 kinase inh | HSV augment | HSV augment primary fold | GALR2 agonist | RGS16-Gao
O=c1c2ccccc2nc2ccc(NCc3cccs3)nn12 | 7 | 106 | 11 | i | 0.85 | nt | 101
O=C(c1cccc([N+](=O)[O-])c1)c1ccc2c(c1)C(=O)N(c1c[nH]c(=O)[nH]c1=O)C2=O | -19 | 97 | -2 | i | 0.99 | nt | 105
O=C(COC(=O)c1ccc(-c2nnc(-c3ccccc3)o2)cc1)c1ccccc1 | nt | nt | -8 | i | 0.88 | -0.7 | 105

The results go on:
SMILES | INS promoter inh | INS promoter inh cell count | PKD1 kinase inh | HSV augment | HSV augment primary fold | GALR2 agonist | RGS16-Gao
CCCCNc1nc2c(-c3ccccc3)nnn2c2ccccc12 | nt | nt | nt | i | 0.93 | nt | 97
Brc1ccc(Cn2c(-c3ccc(Br)o3)nc3ccccc32)o1 | -136 | 97 | -6 | i | 0.96 | -1.7 | 98
O=C(COc1cccc2ccccc12)N/N=C/C=C/c1ccccc1 | -7 | 93 | -1 | i | 0.85 | 0.1 | 100
CCOC(=O)NCC(C)(C)CNC(=O)OCC | -39 | 203 | -2 | i | 0.85 | -0.8 | 98
CCCn1c(SCC(=O)Nc2nnc(CC)s2)nnc1-c1ccco1 | 64 | 114 | 7 | nt | nt | -0.8 | 47
COc1ccc(CCN(Cc2cccs2)S(=O)(=O)c2ccc(C(=O)O)cc2)cc1OC | nt | nt | -4 | i | 0.98 | nt | 103
Cc1ccc(OCCn2c(=O)sc3ccccc32)cc1 | -112 | 120 | -4 | i | 0.87 | -2.9 | 99
COc1ccc(Cn2nnnc2CN2CCC(c3nc4ccccc4s3)CC2)cc1 | nt | nt | -5 | i | 1.1 | -1.5 | 154
O=C(O)c1cc(-c2cccc([N+](=O)[O-])c2)n[nH]1 | 18 | 122 | 3 | i | 0.98 | nt | 102
COC(=O)c1nn(-c2ccc(OC)cc2)c(=O)cc1Oc1cccc(Cl)c1 | nt | nt | 0 | i | 0.92 | -1.1 | 104
CCn1ncc(Br)c1C(=O)Nc1sc2c(c1C(N)=O)CCC2 | 45 | 82 | -10 | i | 0.92 | -1.4 | 94
CCOC(=O)C1(CC2CCCCO2)CCN(C(=O)Nc2ccccc2SC)CC1 (stereo unspecified) | nt | nt | 11 | i | 0.99 | nt | 102
COCCN(CCOC)S(=O)(=O)c1ccc(C(=O)Nc2nc(C)c(C(C)=O)s2)cc1 | -55 | 167 | -10 | i | 1 | -1.8 | 99
O=C1c2cc(N3CCCC3)c([N+](=O)[O-])cc2C(=O)N1c1ccccc1 | 32 | 111 | -12 | i | 1 | -1.0 | 49
CC1(C)CC2CC(C)(CN2S(=O)(=O)c2ccc(C(=O)Nc3cccc(S(=O)(=O)N4CCOCC4)c3)cc2)C1 (stereo unspecified) | 40 | 77 | -10 | i | 0.83 | 0.6 | 43
COc1ccc(C2C(C#N)=C(N)OC(C(C)(C)C)=C2C#N)cc1OC (stereo unspecified) | nt | nt | 10 | i | 1 | -1.7 | 108
CC(=O)Nc1ccc(C(=S)NCCCO)cc1 | nt | nt | -1 | i | 0.97 | nt | 98
COc1ccc(NC(=S)SC)cc1OC | 30 | 123 | -12 | i | 0.94 | -0.2 | 62
COc1ccc(/C=C/C(=O)Oc2cccc(/C=N/NC(=O)COc3c(C)cccc3C)c2)cc1 | 10 | 80 | -12 | i | 0.92 | -0.8 | 105
O=C(CN1CCN(S(=O)(=O)c2ccc(Br)cc2)CC1)Nc1ccc(F)cc1F | -136 | 79 | -5 | i | 0.91 | -0.6 | 100
Cc1cccc(OCCn2c(=O)n(C)c3ccccc32)c1 | nt | nt | -6 | i | 0.92 | -3.2 | 99
COc1ccc(N2CCN(C(=O)c3cccnc3SCc3cccc(Br)c3)CC2)cc1 | nt | nt | 6 | i | 0.99 | nt | 112
Cc1ccc(NC(=O)CSc2nc(N)c3cc4c(nc3n2)CCCC4)cc1 | nt | nt | 2 | i | 1 | 3.3 | 106
CCOC(=O)c1c(-c2ccccc2)oc2ccc(OCC(=O)O)cc12 | nt | nt | nt | i | 1.2 | nt | 108
Cc1c(NC(=O)C2CCN(S(=O)(=O)c3cccs3)CC2)c(=O)n(-c2ccccc2)n1C | nt | nt | nt | i | 0.97 | nt | 99
BrC(=C\c1ccccc1)/C=N/Nc1nc(N2CCOCC2)nc(N2CCOCC2)n1 | -100 | 36 | -8 | i | 0.9 | 1.3 | 109
O=C(COC(=O)c1cccnc1SCC(=O)NCc1ccccc1)NCc1ccccc1 | -31 | 143 | -6 | i | 0.89 | -1.1 | 95

Structures above that have a cyano group:
SMILES | INS promoter inh | INS promoter inh cell count | PKD1 kinase inh | HSV augment | HSV augment primary fold | GALR2 agonist | RGS16-Gao
CCCC1OC23CCCCC2C(C#N)(C#N)C1(C#N)C(=N)O3 (stereo unspecified) | -29 | 66 | -5 | i | 1.4 | 1.2 | 108
COc1ccc(C2C(C#N)=C(N)OC(C(C)(C)C)=C2C#N)cc1OC (stereo unspecified) | nt | nt | 10 | i | 1 | -1.7 | 108

Part of the list above, with values under each structure:
Screens in order – INS promoter inh | INS promoter inh cell count | PKD1 kinase inh | HSV augment | HSV augment primary fold | GALR2 agonist | RGS16-Gao
CC(C)c1ccc2c(c1)C1(NN=C(c3ccccc3)S1)C(=O)N2 (stereo unspecified)
  31 | 141 | 2 | i | 0.95 | 0.4 | 88
CN(C)S(=O)(=O)c1cc(NC(=O)CNCCN2CCOCC2)ccc1Cl
  nt | nt | nt | i | 1 | nt | 110

High-throughput results as filed in PubChem.
